Fam108B counter: blocks mouse Fam108B hydrolase in RBBP9 counter-screen; recombinant Fam108B, FP-Rh probe fluorescence polarization; inhibition, % at 9.51 µM; hit rate 0.33% among 300,000; AID 1947;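 active = inhibition above the screen mean inhibition plus 3 SD, computed separately per campaign, cut at about 18% in these data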;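 note: inhibitors lower polarization as less probe binds the enzyme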
GSTO1 inh: blocks human GSTO1 in RBBP9 counter-screen; P78417; recombinant GSTO1, activity-based probe fluorescence polarization; inhibition, % at 5.96 µM; hit rate 1.1% among 300,000; AID 1974;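 active = inhibition above the campaign mean inhibition plus 3 SD, cut at about 35% in these data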;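 note: 0% = GSTO1-1 with DMSO and 100% = wells lacking GSTO1-1 enzyme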
PAFAH2 FP inh: PAFAH2 (human) inhibition. recombinant PAFAH2, FP-rhodamine activity probe, fluorescence polarization. inhibition, % at 3.39 µM. hit rate 0.99% among 340,000;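 active = inhibition above the mean over all tested compounds plus 3 SD, cut at about 30% in these data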;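 note: inhibitors block probe labeling of enzyme so polarization drops; 0% = enzyme with DMSO and 100% = wells lacking PAFAH2 protein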
PAFAH1B3 inh: blocks human PAF acetylhydrolase 1B catalytic subunit 3. recombinant PAFAH1B3, FP-rhodamine probe, fluorescence polarization. inhibition, % at 3.39 µM. hit rate 0.28% among 340,000;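 active = inhibition above the screen-wide average of all tested compounds plus 3 SD, cut at about 25% in these data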;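 note: 0% = enzyme with DMSO only and 100% = wells lacking PAFAH1B3 protein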
Target sequence (Q15102 whole entry, looked up): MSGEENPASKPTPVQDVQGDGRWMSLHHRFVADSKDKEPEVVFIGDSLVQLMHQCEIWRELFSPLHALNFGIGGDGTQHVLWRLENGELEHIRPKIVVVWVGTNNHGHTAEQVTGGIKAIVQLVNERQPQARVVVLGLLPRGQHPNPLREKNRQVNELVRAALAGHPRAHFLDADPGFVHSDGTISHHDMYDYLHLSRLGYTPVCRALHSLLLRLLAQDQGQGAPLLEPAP
PAFAH1B2 FP inh: inhibitors of human PAFAH1B2 | recombinant PAFAH1B2, FP-rhodamine activity probe, fluorescence polarization | inhibition, % at 3.39 µM | hit rate 1.2% among 340,000 | AID 492953;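 active = inhibition above the mean of all tested compounds plus 3 SD, cut at about 24% in these data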;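 note: 0% = enzyme with DMSO and 100% = wells lacking PAFAH1B2; many of its hits are not listed in these tables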
PAD4 FP inh: PAD4 (human) enzyme inhibition. inhibition, % at 6.36 µM. hit rate 0.41% among 330,000. recombinant PAD4, RCA probe fluorescence polarization. Q9UM07;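 active = percent inhibition above a cutoff equal to the mean of all tested compounds plus 3 SD, cut at about 15% in these data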;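 note: 0% = PAD4 with RCA probe and DMSO and 100% = probe without PAD4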
Target sequence (Q9UM07 whole entry, looked up): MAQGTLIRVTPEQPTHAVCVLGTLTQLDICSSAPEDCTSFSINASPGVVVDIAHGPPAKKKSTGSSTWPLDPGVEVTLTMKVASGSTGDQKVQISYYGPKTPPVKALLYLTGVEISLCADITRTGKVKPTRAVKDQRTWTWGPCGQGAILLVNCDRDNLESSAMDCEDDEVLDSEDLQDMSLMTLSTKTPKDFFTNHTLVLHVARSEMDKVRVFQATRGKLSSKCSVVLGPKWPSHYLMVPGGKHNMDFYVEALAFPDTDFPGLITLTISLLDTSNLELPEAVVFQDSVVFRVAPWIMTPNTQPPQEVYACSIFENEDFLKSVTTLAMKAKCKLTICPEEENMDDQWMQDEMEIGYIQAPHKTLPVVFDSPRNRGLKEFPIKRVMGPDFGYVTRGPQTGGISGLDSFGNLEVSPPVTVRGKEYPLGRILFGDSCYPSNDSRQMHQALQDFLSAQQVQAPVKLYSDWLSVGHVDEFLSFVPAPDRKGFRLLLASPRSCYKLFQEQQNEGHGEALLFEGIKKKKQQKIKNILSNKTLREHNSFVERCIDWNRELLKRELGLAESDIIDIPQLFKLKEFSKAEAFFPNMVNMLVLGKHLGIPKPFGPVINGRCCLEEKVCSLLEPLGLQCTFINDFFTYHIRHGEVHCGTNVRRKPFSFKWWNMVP
PME-1 primary: PME-1 (human) inhibition. Q9Y570. recombinant PME-1, FP-Rh probe fluorescence polarization. inhibition, % at 5.9 µM. hit rate 0.53% among 320,000;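 active = inhibition above the campaign mean of all compounds plus 3 SD, cut at about 26% in these data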;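 note: competitive labeling of PME-1 active site by serine hydrolase directed probe; 0% = PME-1 with DMSO and 100% = wells lacking PME-1 enzyme; inhibitors block probe labeling so polarization falls and inhibition rises; many of its hits are not listed in these tables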
LYPLA1 inh: blocks human lysophospholipase 1, a PME1 counter-screen | O75608 | recombinant LYPLA1, FP-Rh probe fluorescence polarization | inhibition, % at 5.9 µM | hit rate 0.16% among 320,000;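 active = inhibition above the mean of all tested compounds plus 3 SD, set per campaign, cut at about 14% in these data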;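 note: inhibitors block serine hydrolase probe labeling of LYPLA1 so polarization falls; 0% = enzyme with DMSO and 100% = wells lacking LYPLA1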
Numbers without * were called inactive; . = no result given. A portion of the library. The share of hits here may be higher or lower than overall.

smiles	Fam108B counter	GSTO1 inh	PAFAH2 FP inh	PAFAH1B3 inh	PAFAH1B2 FP inh	PAD4 FP inh	PME-1 primary	LYPLA1 inh
CCOc1ccc(C(=O)c2nc3c(n2O)CCCCC3)cc1	-0.3	6.4	6.7	-1.4	5.7	0.2	-4.2	-3.2
Cc1ccc(-c2nc(CSCC(=O)NC3CCN(Cc4ccccc4)CC3)c(C)o2)cc1	-1.6	10.0	-0.2	-0.8	3.9	5.2	-0.4	1.6
Cc1cccc(NS(=O)(=O)c2ccc(C(=O)NCC(C)(C)N3CCOCC3)cc2)c1C	-2.3	4.7	-5.7	4.0	4.5	-1.7	0.1	2.0
CCOc1ccc(NS(=O)(=O)c2ccc(C)c(C(=O)NCCCn3ccnc3)c2)cc1	-2.9	-0.1	-2.0	6.0	3.4	-3.2	0.5	-1.0
O=C(Nc1cccc(S(=O)(=O)Nc2ccc(Cl)cc2)c1)c1ccc[n+]([O-])c1	-3.4	-0.9	4.2	-2.0	5.3	-2.0	0.4	0.3
O=C(Nc1cccc(S(=O)(=O)Nc2ccc(Cl)cc2)c1)c1ccccn1	.	.	-4.0	2.4	2.8	2.5	3.1	-3.1
CCC1CCc2sc(C(=O)N3CCN(c4ccccn4)CC3)cc2C1 (configuration not stated)	3.9	-1.3	11.2	-1.6	-0.9	-2.3	2.9	2.5
CCCCN=CC1=C(O)C(C(=O)OC)C(C)(C)CC1=O (configuration not stated)	0.9	1.2	1.9	2.1	-8.7	-0.7	-1.6	-2.2
Cc1cc(NS(=O)(=O)c2ccc(NS(=O)(=O)c3ccc(CC(C)C)cc3)cc2)nc(C)n1	2.2	-2.3	5.4	4.9	7.0	-2.5	3.3	7.3
CCCCc1c(O)nc(SCC(=O)c2ccccc2)n(-c2ccccc2C)c1=O	-2.5	5.5	14.5	3.5	4.6	1.9	2.9	1.1
Cc1ccc(SCC(=O)OCC(=O)NCCCc2ccccc2)cc1	-0.8	3.7	2.5	3.1	54.7*	-4.3	2.9	2.4
CC(C)(C)C(=O)Nc1cc(S(=O)(=O)Nc2ccc(Cl)cc2)ccc1Cl	2.3	9.6	-6.3	-0.8	15.6	-2.1	-3.1	-3.5
Fc1cccc(-n2cc(-c3ccccc3)c3c(=S)nc[nH]c32)c1	0.6	-17.6	10.2	11.3	3.5	-5.9	7.3	0.1
COc1ccc(OC)c(N2CC(O)=C(c3nc4ccccc4s3)C2=N)c1	-2.1	-3.5	2.2	-2.2	-6.1	-4.4	3.1	-3.2
Cc1cccc(C)c1NC(=O)COC(=O)c1c(C)nn(-c2ccccc2)c1C	.	.	9.2	9.1	1.4	5.9	1.8	2.8
Cc1ccc(NC(=O)NNC(=O)c2cc3ccccc3cc2O)c(C)c1	3.3	-0.4	1.4	18.0	9.0	-2.8	9.1	-5.4
Cc1cccc(NS(=O)(=O)c2ccc(C(=O)N3CCC3)cc2)c1C	0.6	19.4	-2.0	10.8	0.7	-1.4	-1.0	2.7
CCOc1ccc(NS(=O)(=O)c2ccc3[nH]cc(C(=O)NC(C)CC)c(=O)c3c2)cc1 (configuration not stated)	-5.4	4.0	-7.3	0.6	-1.8	1.2	2.9	-13.7
Cc1ccc(NS(=O)(=O)c2cccc(C(=O)N3CCCCCC3)c2)cc1	-1.6	13.1	6.7	-1.3	7.7	-1.8	-2.4	-0.3
CCOC(=O)N1CCN(C(=O)COc2ccc(S(=O)(=O)Nc3ccc(OCC)cc3)cc2)CC1	1.2	3.8	-0.7	-7.4	-4.5	1.7	7.3	-2.4
Cc1ccc(C(=O)NCCSc2ccccc2)cc1S(=O)(=O)Nc1ccccc1	-6.0	-0.1	-7.6	-1.0	20.0	-4.1	-10.6	-8.8
Cc1ccc(NS(=O)(=O)c2ccc(C(=O)NCCCN3CCCC3=O)cc2)cc1	-1.4	8.0	-3.2	5.1	6.8	-4.3	-4.5	-3.1
Cc1ccc(NS(=O)(=O)c2cccc(C(=O)N3CCN(c4ncccn4)CC3)c2)cc1	.	.	1.9	4.1	1.8	36.5*	30.7*	24.0*
Cc1cccc(Cn2cnc3c(NS(C)(=O)=O)c(C)c(C)cc32)c1	0.8	1.0	-2.6	12.0	-0.2	-3.7	4.1	-0.9
COc1ccccc1/C=C/C(=O)OCC(=O)Nc1c(C)nn(-c2ccccc2)c1C	.	.	68.1*	0.4	5.1	-0.8	5.4	-3.6
COc1ccc(N/C(C)=C/C(=O)c2ccccc2)cc1	-7.1	2.7	4.5	-0.1	6.4	-5.2	5.7	0.1
COc1ccc(-c2cc(C)no2)cc1S(=O)(=O)Nc1ccccc1	-3.2	-4.1	7.7	6.4	-0.4	-4.1	3.5	-3.2
Cc1c(/C=N/n2cnnc2)c2ccccc2n1CCOc1ccc(Cl)cc1	-0.6	3.0	-0.8	-1.6	2.9	-2.7	11.5	-0.7
Cc1ccc(NS(=O)(=O)c2ccc(C(=O)N3CCCCCCC3)cc2)cc1	-1.8	-2.1	4.9	0.0	4.0	1.1	12.6	8.2
O=C(COC(=O)c1ccc(O)cc1)NC1CCCCCC1	.	.	82.9*	5.5	1.5	-2.1	8.1	0.9
Cc1ccccc1CS(=O)(=O)Cc1ccc(C(=O)NCCc2ccccc2)o1	0.2	-1.6	4.3	7.8	7.4	1.2	-3.0	-0.8
CC1(C)Cc2c(sc(NC(=O)COc3ccc(Cl)cc3)c2C#N)C(C)(C)N1	1.7	3.2	12.0	1.0	7.4	-2.4	-2.8	1.6
CC(C)=CCOc1ccc([C@@H]2COc3c(ccc4c3C=CC(C)(C)O4)C2)c(O)c1	-13.7	-8.5	-3.2	-5.8	-3.6	-0.7	-14.0	3.0
CCN(CC)S(=O)(=O)c1ccc(S(=O)(=O)Nc2ccc3c(c2)oc2ccccc23)cc1	-14.4	13.9	-7.2	-5.3	-4.0	-2.6	-30.1	-25.5
O=C(/C=C/c1ccccc1)NCc1ccco1	4.5	-8.9	0.9	6.2	5.9	-2.4	-2.6	0.8
CSc1ccc(S(=O)(=O)Nc2ccc(F)cc2)cc1	-3.3	4.1	0.7	4.6	4.2	1.2	2.3	5.2

Structures listed so far containing fluorine, in the order listed:
smiles	Fam108B counter	GSTO1 inh	PAFAH2 FP inh	PAFAH1B3 inh	PAFAH1B2 FP inh	PAD4 FP inh	PME-1 primary	LYPLA1 inh
Fc1cccc(-n2cc(-c3ccccc3)c3c(=S)nc[nH]c32)c1	0.6	-17.6	10.2	11.3	3.5	-5.9	7.3	0.1
CSc1ccc(S(=O)(=O)Nc2ccc(F)cc2)cc1	-3.3	4.1	0.7	4.6	4.2	1.2	2.3	5.2

Sorted by number of heavy atoms (smallest number first): some entries from above.
smiles	Fam108B counter	GSTO1 inh	PAFAH2 FP inh	PAFAH1B3 inh	PAFAH1B2 FP inh	PAD4 FP inh	PME-1 primary	LYPLA1 inh
O=C(/C=C/c1ccccc1)NCc1ccco1	4.5	-8.9	0.9	6.2	5.9	-2.4	-2.6	0.8
CSc1ccc(S(=O)(=O)Nc2ccc(F)cc2)cc1	-3.3	4.1	0.7	4.6	4.2	1.2	2.3	5.2
COc1ccc(N/C(C)=C/C(=O)c2ccccc2)cc1	-7.1	2.7	4.5	-0.1	6.4	-5.2	5.7	0.1
O=C(COC(=O)c1ccc(O)cc1)NC1CCCCCC1	.	.	82.9*	5.5	1.5	-2.1	8.1	0.9
Cc1cccc(Cn2cnc3c(NS(C)(=O)=O)c(C)c(C)cc32)c1	0.8	1.0	-2.6	12.0	-0.2	-3.7	4.1	-0.9
CC1(C)Cc2c(sc(NC(=O)COc3ccc(Cl)cc3)c2C#N)C(C)(C)N1	1.7	3.2	12.0	1.0	7.4	-2.4	-2.8	1.6
Cc1ccccc1CS(=O)(=O)Cc1ccc(C(=O)NCCc2ccccc2)o1	0.2	-1.6	4.3	7.8	7.4	1.2	-3.0	-0.8
Cc1ccc(C(=O)NCCSc2ccccc2)cc1S(=O)(=O)Nc1ccccc1	-6.0	-0.1	-7.6	-1.0	20.0	-4.1	-10.6	-8.8
COc1ccccc1/C=C/C(=O)OCC(=O)Nc1c(C)nn(-c2ccccc2)c1C	.	.	68.1*	0.4	5.1	-0.8	5.4	-3.6
CCN(CC)S(=O)(=O)c1ccc(S(=O)(=O)Nc2ccc3c(c2)oc2ccccc23)cc1	-14.4	13.9	-7.2	-5.3	-4.0	-2.6	-30.1	-25.5

Next results
smiles	Fam108B counter	GSTO1 inh	PAFAH2 FP inh	PAFAH1B3 inh	PAFAH1B2 FP inh	PAD4 FP inh	PME-1 primary	LYPLA1 inh
O=[N+]([O-])c1c(Nc2ccccn2)cc(Cl)c2nonc12	-12.6	-47.3	-36.0	-0.5	-29.6	49.3*	15.4	-0.6
CCN1CC(CNC(=O)c2ccc3nc(Cc4cccc(Cl)c4)oc3c2)CC1=O (configuration not stated)	1.9	8.3	2.3	13.0	-0.3	1.6	0.6	-4.8
CN(c1ccccc1)S(=O)(=O)c1cccc(NC(=O)CCNC(=O)c2ccc([N+](=O)[O-])cc2)c1	.	.	4.3	-6.0	1.9	1.0	.	.
C[C@@H]1CCC(=O)N(CC[C@H](Sc2ccc(Br)cc2)c2ccccc2)CC1	.	.	1.0	4.0	6.6	-6.1	-1.7	1.6
Cc1nc(-c2ccc(S(=O)(=O)Nc3ccccc3C)cc2)co1	-1.2	-1.3	2.6	11.6	6.7	1.1	-5.2	-1.3
FC(F)C(F)(F)c1cc(-c2ccc(Cl)cc2)n[nH]1	-2.7	4.3	.	.	.	-4.0	-6.8	-4.8
Cc1ccc(NS(=O)(=O)c2ccc(OCC(=O)N3CCOCC3)cc2)cc1	5.1	3.7	13.1	-3.0	2.4	-2.6	6.4	2.6
Cc1ccccc1NS(=O)(=O)c1cccc(-c2nnc(-c3ccccc3)o2)c1	-1.8	3.0	0.5	-2.3	-4.8	0.2	8.9	-5.6
NC(=O)c1cc(S(=O)(=O)Nc2ccc(OC(F)(F)F)cc2)cs1	1.7	3.5	-5.9	6.9	11.7	-1.6	15.7	7.8
CC1CCCCC1NC(=O)COC(=O)c1ccc(N(C)C)cc1 (configuration not stated)	1.4	-1.2	92.8*	4.0	5.3	-2.8	2.9	1.0
Cc1cccc(NC(=O)c2oc(=O)c3ccccc3c2-c2ccccc2)c1C	-1.2	-4.2	47.2*	13.3	-1.0	-3.3	-1.6	-0.1
O=C(N/N=C/c1ccc(OC(=O)c2cccs2)cc1)c1cccc(F)c1	-8.4	5.6	-11.8	-2.3	-4.3	-6.5	-13.7	-14.7
Cc1nnc2ccc(-c3ccc(NS(=O)(=O)c4ccccc4[N+](=O)[O-])cc3)nn12	.	.	5.7	-2.6	1.6	-2.2	22.4	0.0
Cc1ccc(-n2c(Cc3cccn3C)nnc2SCC(=O)Nc2cc(C)on2)cc1	14.1	-3.5	-4.8	11.3	2.2	0.9	-8.4	-3.1
N#Cc1c(-c2ccc(F)cc2)cc(-c2ccccc2)nc1SCC(=O)NCC(=O)O	1.5	7.0	5.3	11.2	0.8	1.9	-3.7	1.8
